# Sa growth inh: inhibitors of Staphylococcus aureus growth at 42 °C; 170,000 compounds, 0.53% hits; S. aureus RN4220 growth, OD600, 20 h; hits give low values; relative growth, % (no concentration beside the values);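 active = growth at 42 °C up to 50% and 20 or more points under that at 30 °C, or under 10% at both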;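 also: 300 nL library stock went into each well; scaled to the means of positive and negative controls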
# GIV-Gai inh: inhibitors of GIV GBA-motif binding to rat Galpha-i3; P08753; Galpha-i3/FITC-GIV peptide fluorescence polarization, 90 min; hits give low values; scaled: aluminum fluoride 0%, vehicle 100%; percent of control (FP), % (concentration not given with the values); 210,000 compounds, 0.42% hits;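 active = replicate mean at 85% of control or lower, very high polarization wells dropped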;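 also: wells of about 15 µL received 100 nL stock; the first replicate is given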
# Target sequence (P08753 whole entry, looked up): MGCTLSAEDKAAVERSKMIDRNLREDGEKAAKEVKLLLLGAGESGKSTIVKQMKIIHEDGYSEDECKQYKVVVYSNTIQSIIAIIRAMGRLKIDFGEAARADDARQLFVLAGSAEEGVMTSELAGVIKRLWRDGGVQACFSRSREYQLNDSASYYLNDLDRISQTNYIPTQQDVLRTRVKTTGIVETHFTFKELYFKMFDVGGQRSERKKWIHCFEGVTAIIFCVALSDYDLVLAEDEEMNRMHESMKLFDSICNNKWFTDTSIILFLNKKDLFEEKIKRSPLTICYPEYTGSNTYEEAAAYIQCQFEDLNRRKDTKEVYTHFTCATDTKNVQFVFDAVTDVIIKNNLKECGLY
# HCMV UL50-53 inh: disrupts HCMV UL50-UL53 complex binding; AID 1918969; HTRF UL50-UL53 interaction, normalized percent inhibition; inhibition, % (test concentration not listed); 190,000 compounds, 0.15% hits;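 active = both replicates at 50% or more, plus weaker picks with an unusually low signal ratio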;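 also: stock transfer was 100 nL into about 20 µL; 0% = negative control wells and 100% = wells with untagged competitor protein; inactives centre near -12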
# Sa growth inh second temp: recorded beside Sa growth inh, whose call it bears; relative growth, %; measured here: growth at 30 °C;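 optical density after 20 h as mean of two plates; 100% = untreated growth and lower means inhibition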
# An asterisk follows results filed as active; x = not tested or not shown; & = joins results of further samples. Outcome played no part in choosing rows. Share with any hit: about 0.82%.
SMILES,Sa growth inh,Sa growth inh second temp,GIV-Gai inh,HCMV UL50-53 inh
NC(=O)c1ccccc1NCC(=O)c1ccc(F)cc1,101,88,98,12
COc1ccc(S(=O)(=O)n2nc(C)c(S(=O)(=O)N3CCCCCC3)c2C)cc1C,82,89,108,x
CC(=O)Nc1ccc(NC(=O)c2ccc(I)cc2)cc1,127,106,96,4
CC1CCCCN1c1ccc(N)cc1 (stereo not drawn),44,1,123,-22
Cc1ccc(CNC(=O)c2c(O)nc3cc(C)ccn3c2=O)cc1,96,87,99,1
O=C(CSCc1ccccc1Cl)N1CCN(c2ccc(Cl)cc2)CC1,81,45,99,x
Cc1ccc2c(c1)N(C(=O)CN1C(=O)C3CCCCC3C1=O)C(C)(C)c1ssc(=S)c1-2 (stereo not drawn),x,x,99,-24
COc1ccccc1CNC(=O)Cn1ncn2c(cc3sccc32)c1=O,160,89,105,-29
CCc1cc2c(cc3c(=O)n(CCCC(=O)NC4CCCCC4)ncn32)s1,103,95,104,-2
Cc1cccc(NC(=O)CN2C(=O)CCn3nc(-c4cccn4C)cc32)c1C,77,93,105,x
NC(=O)Cn1nc(C(=O)O)c2ccccc2c1=O,96,89,x,-37
COc1ccc(OCC(O)Cn2c(=N)n(Cc3ccccc3)c3ccccc32)cc1 (stereo not drawn),89,59,106,-28
Cc1cccc(C)c1OCCn1c(C2CC(=O)N(c3cccc(Cl)c3)C2)nc2ccccc21 (stereo not drawn),106,84,104,-12
Cc1cc(C)cc(Nc2cc(C)nc(-n3nc(C)cc3C)n2)c1,-0.7*,-0.2*,103,-4
CC(C)(C)C1CCC(OC(=O)CN2CCCCC2)CC1 (stereo not drawn),82,78,99,-21
COc1ccc(CN2CCSCC2)c(C)c1C,96,99,110,14
CN(C)C(=O)NC1CC(C)(C)N(O)C(C)(C)C1,79,93,x,2
CCOC(=O)C1=C(C)N=c2s/c(=C/c3ccc(OC)c(OC(C)=O)c3)c(=O)n2C1c1ccccc1Cl (stereo not drawn),x,x,107,-21
COC(=O)C[N+]1(Cc2ccco2)CCCCC1,110,112,99,22
CCOc1cc2[nH]c(=O)n(CCCC(=O)NCc3ccc(OC)cc3)c(=O)c2cc1OCC,92,78,101,x
Cc1ccc(CCNC(=O)c2cc3c(-c4ccccc4F)nn(C)c3s2)cc1,99,76,99,-25
O=C(c1cc(-c2ccc(F)cc2)no1)N1CCOCC1,104,95,104,x
COC(=O)c1ccc(C=Nc2ccc(O)c(-c3nc4ccccc4o3)c2)cc1,110,84,98,-12
O=C(Nc1ccn(Cc2c(F)cccc2Cl)n1)c1cc2ccccc2oc1=O,85,84,106,-9
CCN(CC)C(=O)c1c[nH]c2ccccc2c1=O,83,84,x,-1
C=CCn1c2ccccc2c2nnc(SC(CC)C(=O)Nc3nnc(C(F)(F)F)s3)nc21 (stereo not drawn),84,61,104,x
CCOc1ccc(C2=C(C(=O)CC)Sc3nncn3N2C(=O)CC)cc1,75,72,96,x
Cc1ccc(-n2ncc(C(=O)NCc3ccccn3)c2C2CCN(C(=O)OC(C)(C)C)CC2)c(C)c1,96,89,104,x
COc1cc(-c2nc3ccccc3c(=O)n2NCc2ccccc2Br)cc(OC)c1OC,x,x,103,-20
COc1ccc(C)cc1-n1nnc(S(=O)(=O)c2ccc(C)cc2)c1C,96,81,97,-2
CCC1CN(C(=O)N2CCC(C(=O)NCCCc3ccccc3)CC2)c2ccccc2O1 (stereo not drawn),117,92,106,-3
CCC(C)(C)NC(=O)Cn1c(-c2ccc(C)cc2)noc1=O,108,89,104,-1
CSC1=C(C#N)C(=C(C#N)C#N)NC(c2ccccc2)=N1,74,69,106,-6
Cc1cc(C)c(C(=O)Cn2c(=O)oc3ccccc32)c(C)c1,99,92,x,-11
CCc1cnc(/N=C/N(C)C)nc1-c1c(F)cccc1F,95,87,108,-26
O=C(Nc1ccc2c(c1)OCCO2)N1CCC(c2nc(-c3ccccc3)no2)CC1,x,x,100,-36
COc1ccc(COc2ccc(=O)n(-c3ccc(C(=O)Nc4cc(F)ccc4F)cc3)n2)cc1,x,x,104,-3
CCCN(CCC)C(=O)COc1cc(=O)n(CC)c2ccccc12,98,76,97,-20
C=CCNC(=S)Nc1ccc(C)cc1,104,84,x,-17
NC(=O)c1cccnc1OCC(F)(F)F,94,99,102,-2
O=C(Cc1ccc(NC(=O)N2CCCCc3ccccc32)cc1)NCc1cccnc1,x,x,109,-15
Cc1ccc(S(C)(=O)=NC(=O)CSc2ccc(C(F)(F)F)cn2)cc1 (stereo not drawn),92,88,101,3
C[C@]12C=CC(=O)C=C1CC[C@@H]1[C@@H]2C(=O)C[C@@]2(C)[C@H]1CC[C@]2(O)C(=O)CO,84,88,99,-39&2&-62
CCOC(=O)c1ccc(N2CCN(c3ccc(F)cc3)CC2)c(NC(=O)Nc2cccc(OC)c2)c1,89,96,102,x
COc1ccc(-c2noc(CCCC(=O)N(C)C)n2)cc1,88,89,106,-17

# By substructure, the entries above containing a thiophene ring, fused or not
SMILES,Sa growth inh,Sa growth inh second temp,GIV-Gai inh,HCMV UL50-53 inh
COc1ccccc1CNC(=O)Cn1ncn2c(cc3sccc32)c1=O,160,89,105,-29
CCc1cc2c(cc3c(=O)n(CCCC(=O)NC4CCCCC4)ncn32)s1,103,95,104,-2
Cc1ccc(CCNC(=O)c2cc3c(-c4ccccc4F)nn(C)c3s2)cc1,99,76,99,-25

# The results go on.
SMILES,Sa growth inh,Sa growth inh second temp,GIV-Gai inh,HCMV UL50-53 inh
CCOc1ccc(CC(=O)Nc2nnc3n2CCS3)cc1,80,92,101,x
O=C(Cn1c(=O)n(-c2ccc(CC(=O)NC3CC3)cc2)c(=O)c2ccccc21)NCc1ccc(Cl)cc1,x,x,95,-6
Cc1ccc(NC(=O)Cn2cc(C#N)c3ccccc32)cc1,103,75,107,1
O=C(CCN(Cc1cccc(Cl)c1)C(=O)c1ccc(F)c(F)c1)N1CCNCC1,x,x,99,-6
O=C(CC1CC2CCC1C2)NC1CCCCCCC1 (stereo not drawn),119,91,108,x
Cc1nc2scc(-c3cccs3)c2c(=O)n1CC(=O)OCC#N,92,89,x,-22
CCn1c(SCc2nc3ccccc3[nH]2)nc2cc(C(=O)OC)ccc2c1=O,91,67,104,x
Cc1nc2ccc(C(=O)OCC(=O)c3ccc4c(c3)OCCO4)cc2nc1C,93,103,x,-28
CCc1ccc(NC(=O)CSc2ncnc3ccccc23)cc1,145,81,x,-24
CCOC(=O)c1cc(-c2ccc(OC)cc2)n(CCC(=O)NCc2ccccc2OC)c1C,149,89,100,x
CCOc1ccc(N(CC)c2nc(-c3ccc(OC)cc3)no2)cc1,85,81,99,x
CN1CCN(C(=O)CN2c3ccc(Br)cc3-c3ccccc3S2(=O)=O)CC1,x,x,97,-16
CCOC(=O)c1csc(Cc2c(Cl)sc3ccc(Cl)cc23)n1,96,94,97,-3
O=C1CC(c2cccc(Cl)c2)c2c(-c3ccccc3)nn(-c3ccccc3)c2N1 (stereo not drawn),x,x,103,2
CCOc1ccccc1C(=O)Oc1c(Sc2ccccc2)c(C)nn1C(C)(C)C,101,93,104,-7
COc1cc(NC(=O)CCS(=O)(=O)c2ccc3c(c2)n(C)c(=O)c(=O)n3C)cc(OC)c1,103,94,105,4
COc1ccc(OC)c(C2C3=C(CC(C)(C)CC3=O)Nc3ccccc3N2C(=O)C(F)(F)F)c1 (stereo not drawn),x,x,103,-17
CCOC(=O)c1c(NC(=O)c2ccccc2Cl)sc(C(=O)Nc2ccccc2OCC)c1C,x,x,118,0
Cc1c(CCC(=O)O)c(=O)oc2cc3occ(-c4ccccc4)c3cc12,28,16,103,x
CCOC(=O)c1c(NC(=O)c2cc3ccccc3c(=O)o2)sc2c1CCCC2,110,87,105,-14
CCC(=O)N(CCN1C(=O)c2ccccc2C1=O)c1ccc(C)cc1C,102,99,x,-18
Cc1cc(C(F)(F)F)c(C#N)c(SCC(=O)O)n1,96,97,103,-28
Cc1ccc(CCNC(=O)Cn2ncc3c2-c2cc(C)ccc2OC3)cc1,94,83,99,5
C=CCn1c(SCC(=O)NCc2ccc3c(c2)OCO3)nc2sc3c(c2c1=O)CCC3,x,x,103,-11
Cc1ccc(-n2c(N3CCCC(C(=O)O)C3)nc3ccsc3c2=O)cc1 (stereo not drawn),x,x,108,11
CC(C)NC(=O)CSCc1csc2c1CCCC2,82,85,98,x
CN=C1S/C(=C/c2cccc(F)c2)C(=O)N1C,93,89,102,x
O=C(c1ccc(Br)cc1)N1CCc2nc(-c3ccccc3)sc2C1,x,x,98,-10
CC(C)c1ccc(CN(C)CC(O)COCc2ccc3c(c2)OCO3)cc1 (stereo not drawn),104,90,x,-16
NC(=O)c1ccsc1NC(=O)c1coc2ccccc2c1=O,101,100,109,-20

# One compound at a time, from the list above. Order of screens: Sa growth inh	Sa growth inh second temp	GIV-Gai inh	HCMV UL50-53 inh
# CC(C)c1ccc(CN(C)CC(O)COCc2ccc3c(c2)OCO3)cc1 (stereo not drawn) is listed as 104	90	x	-16
# NC(=O)c1ccsc1NC(=O)c1coc2ccccc2c1=O is listed as 101	100	109	-20

# Next section:
SMILES,Sa growth inh,Sa growth inh second temp,GIV-Gai inh,HCMV UL50-53 inh
CCCOc1cccc(C(=O)N(Cc2cc(OC)c(OC)c(OC)c2)C2CCS(=O)(=O)C2)c1 (stereo not drawn),100,91,100,-6
CCc1ccc(NC(=O)CSc2nccn2C2CCCC2)cc1,132,91,108,x
CCCCC1(c2cc(O)cc(O)c2)SCCS1,101,81,x,-14
Cc1[nH]c(=O)[nH]c(=O)c1CSCC(=O)O,94,86,97,2
COc1ccccc1N1CCN(c2ncnc3scc(-c4ccc(Cl)cc4)c23)CC1,x,x,101,-2
Cc1nnsc1C(=O)Nc1ccc(C(N)=O)cc1,90,90,103,-27
CC(C)Cn1c(N)c(Br)c(=O)[nH]c1=O,99,97,x,-14
COC(=O)Cc1[nH]n(-c2nc3ccccc3s2)c(=O)c1C(C)=O,93,83,x,2
Cc1ccc(S(=O)(=O)Nc2ccc(Oc3cccnc3)nc2)cc1,108,80,103,-14
COc1cc(C2NC(=O)C3C4=C(CCC4)SC3N2)ccc1OCC(=O)Nc1ccc(C)cc1 (stereo not drawn),94,97,x,-67
CC(C)C(=O)Nc1noc2ccccc12,91,91,107&96,-5&-10
Cc1ccc(CCC(=O)O)cc1,112,93,98,-7
COc1ccc(-c2c(C#N)c(N)nc3sc(C(=O)c4ccccc4)c(N)c23)cc1,x,x,115,-17
COC(=O)c1ccc(C2C3=C(CC(C)(C)CC3=O)Nc3onc(C)c32)cc1 (stereo not drawn),x,x,104,2
CC(=O)c1ccc(N2CCN(c3ncnc4c3c(-c3ccccc3)cn4-c3ccc(Cl)cc3)CC2)cc1,116,88,107,x

# Five of the compounds above, with values under each structure.
# Under each structure: Sa growth inh	Sa growth inh second temp	GIV-Gai inh	HCMV UL50-53 inh
CCC(C)(C)NC(=O)Cn1c(-c2ccc(C)cc2)noc1=O
  108	89	104	-1
Cc1ccc(-n2c(N3CCCC(C(=O)O)C3)nc3ccsc3c2=O)cc1 (stereo not drawn)
  x	x	108	11
Cc1nc2scc(-c3cccs3)c2c(=O)n1CC(=O)OCC#N
  92	89	x	-22
CCOC(=O)C1=C(C)N=c2s/c(=C/c3ccc(OC)c(OC(C)=O)c3)c(=O)n2C1c1ccccc1Cl (stereo not drawn)
  x	x	107	-21
Cc1cc(C(F)(F)F)c(C#N)c(SCC(=O)O)n1
  96	97	103	-28

# Later entries:
SMILES,Sa growth inh,Sa growth inh second temp,GIV-Gai inh,HCMV UL50-53 inh
CCOC(=O)C1=C(C)NC2=C(C(=O)CC(c3ccc(OC)c(OC)c3)C2)C1c1ccc(Br)cc1 (stereo not drawn),x,x,101,9
CCOc1ccc(CNC(=O)Cn2c(=O)c3cccn3c3ccc(F)cc32)cc1OC,105,71,99,1
O=S(=O)(NC1CCN(Cc2c(F)cccc2Cl)CC1)c1cccc2nonc12,114,92,106,-84
C=CCn1cnnc1SCc1cc(F)ccc1OC,102,95,x,-6
CCOc1cc(C2NC(=O)c3c(sc4c3CCN(C)C4)N2)ccc1OC(=O)c1ccc(F)cc1 (stereo not drawn),86,85,126,-36
Cn1cccc1Cc1nnc(SCC(=O)Nc2ccc3c(c2)OCO3)n1CCc1ccccc1,116,87,105,-10
Cc1ccccc1C(=O)OCC(=O)N(C)c1ccccc1,113,83,x,-26
COc1cc(/C=C/C(=O)NCC(=O)O)cc(Br)c1OC,101,86,104,-35
NS(=O)(=O)c1ccc(NC(=O)c2ccccc2C(=O)N2CCCCC2)cc1,100,89,99,x
COc1ccc(NC(=O)C(=O)NCCN2CCN(C(=O)c3ccc(Br)cc3)CC2)cc1,x,x,102,-20
COC(=O)C(C)N1C(=O)S/C(=C/c2ccc(F)cc2)C1=O (stereo not drawn),112,79,106,-54
Cc1nnc(N2CCC(C(=O)N3CCN(c4ccccn4)CC3)CC2)c2nn(-c3ccccc3)c(C)c12,x,x,105,-3
O=C(Nc1ccc(F)cc1)c1cc(-c2cccs2)nc2ccccc12,x,x,102,10
COc1ccc(-c2onc(C)c2-c2cnn(-c3ccccc3)c2)c(O)c1,92,90,x,-28
CC1=C(C(=O)Nc2cc(Cl)ccc2C)C(c2ccccc2F)n2ncnc2N1 (stereo not drawn),89,89,99,x
CCOc1cc(C=C2C(=O)NC(=S)NC2=O)ccc1OC(=O)c1ccc(Cl)cc1,x,x,105,-4
CC(NC1=CC(=O)OC12CCCCC2)c1ccccc1 (stereo not drawn),101,104,99,-9
O=C(NCCCN1CCOCC1)c1nn2c(c1Br)NC(c1cccs1)CC2C(F)(F)F (stereo not drawn),x,x,92,-33

# Screening results from PubChem.
